GIV Gai3 FP: GIV-Galpha-i interaction inhibition. actives 0.42% (n = 210,000). Galpha-i3/FITC-GIV peptide fluorescence polarization, 90 min; hits give low values; scaled: aluminum fluoride 0%, vehicle 100%. percent of control (FP), % (test concentration not listed). AID 1224905;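 active = replicate mean at 85% of control or lower, very high polarization wells dropped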;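 note: wells of about 15 µL received 100 nL stock; the first replicate is given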
Target sequence (P08753 whole entry, looked up): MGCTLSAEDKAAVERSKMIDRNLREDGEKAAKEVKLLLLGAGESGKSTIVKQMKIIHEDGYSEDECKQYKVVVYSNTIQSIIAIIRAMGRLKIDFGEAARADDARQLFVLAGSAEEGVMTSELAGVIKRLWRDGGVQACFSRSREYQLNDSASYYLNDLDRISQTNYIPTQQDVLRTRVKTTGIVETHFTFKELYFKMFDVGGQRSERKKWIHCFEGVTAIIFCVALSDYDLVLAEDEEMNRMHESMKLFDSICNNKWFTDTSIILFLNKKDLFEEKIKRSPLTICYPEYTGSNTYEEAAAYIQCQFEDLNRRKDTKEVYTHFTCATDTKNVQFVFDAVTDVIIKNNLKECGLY
An asterisk follows results filed as active. A portion of the library; the hit share may differ from the screen's.

no. | GIV Gai3 FP | SMILES
1 | 104.8 | COc1ccc(OC)c(NC(=O)c2cc(S(=O)(=O)NCCc3ccc(OC)c(OC)c3)ccc2F)c1
2 | 104.7 | COc1ccc2c(c1)C(=NN=C(N)N)c1cc(OC)ccc1-2
3 | 103.3 | CCCc1cc(C2CCCN2S(=O)(=O)c2cnc[nH]2)no1 (stereo not drawn)
4 | 96.9 | CCN1CCN(c2ccc3nnc(CCc4nc(-c5ccc(F)cc5)no4)n3n2)CC1
5 | 110.9 | CN(Cc1ccccc1)C(=O)c1nc(N2CCOCC2)c2oc3ccccc3c2n1
6 | 98.9 | COc1ccc(N2CC(c3nnc(NC(=O)Cc4ccc(Cl)cc4)o3)CC2=O)cc1 (stereo not drawn)
7 | 112.8 | COc1ccc(-c2nc(-c3ccc(OC)c(OC)c3)[nH]c2-c2ccc(OC)cc2)cc1
8 | 95.5 | Cc1cc(Br)ccc1NC(=O)c1cc2c(C)nn(-c3ccccc3)c2s1
9 | 112.6 | COc1ccc(C(=O)Nc2ccc(S(=O)(=O)Nc3nc(C)cc(C)n3)cc2)cc1OC
10 | 110.5 | CCSc1ncnc2c(C#N)c3n(c12)CCCCC3
11 | 105.2 | CC1(C(=O)NCc2ccc(F)cc2)CCCN(C(=O)C2CC2)C1 (stereo not drawn)
12 | 107.7 | O=[N+]([O-])c1cc(Oc2ccccc2)cc(Oc2ccc3oc4c(c3c2)CCCC4)c1
13 | 98.3 | COc1ccc(NC(=O)Cn2c(=O)c(CCC(=O)NC3CCCCC3)nc3ccccc32)c(OC)c1
14 | 117.0 | CC1(C)Cc2ccccc2C2=C(C(=O)N3CCCC3)C(=O)C(=O)N21
15 | 104.5 | Cc1cc(N2CCCCC2)nc(Nc2ccc(NC(=O)Nc3ccccc3)cc2)n1
16 | 99.2 | O=C(CS(=O)Cc1cnn(-c2ccccc2)c1-n1cccc1)N1CCN(c2ccccc2)CC1 (stereo not drawn)
17 | 94.4 | Cc1cc(C)n(-c2nc3c(c(=O)n2CC(=O)Nc2cc(C)on2)CCC3)n1
18 | 104.2 | CC(C)n1nc2c(S(=O)(=O)N3CCCCC3)cccn2c1=O
19 | 111.9 | COc1ccccc1C(=O)N/C(=C\c1ccc2c(c1)OCO2)C(=O)Nc1ccc(C)cc1
20 | 106.2 | Cc1cc(C2CCCN2C(=O)Nc2ccc3c(c2)OCCO3)on1 (stereo not drawn)
21 | 103.6 | O=C(c1ccccc1)c1ccc2nc(-c3ccccc3)c(-c3ccccc3)nc2c1
22 | 110.4 | CCOC(=O)N1CCN(C(=O)c2c[nH]c3ccc(S(=O)(=O)N(C)c4ccc(OCC)cc4)cc3c2=O)CC1
23 | 97.7 | O=C(CS(=O)Cc1cnn(-c2ccccc2)c1-n1cccc1)N1CCN(c2ccccn2)CC1 (stereo not drawn)
24 | 105.7 | O=C(CCc1nc(CSc2nc3ccccc3s2)no1)Nc1ccc(Cl)cc1F
25 | 111.9 | O=C(Nc1ccc(OC(F)(F)F)cc1)C1OC2OC3(CCCCC3)OC2C2OC3(CCCCC3)OC12 (stereo not drawn)
26 | 97.7 | Cc1nnc(-c2csc(S(=O)(=O)N3CCOCC3)c2)o1
27 | 103.1 | CCCCC(=O)N1CCCN(C(=O)Nc2ccc(S(=O)(=O)N3CCOCC3)s2)CC1
28 | 105.0 | CCOc1ccc(CC2=NCCc3cc(OCC)c(OCC)cc32)cc1OCC
29 | 100.9 | COc1cccc(C(c2c(C)[nH]n(-c3ccccc3)c2=O)c2c(C)[nH]n(-c3ccccc3)c2=O)c1O
30 | 105.8 | C=CCSc1nc2nc3c(cc2c(=O)n1-c1ccccc1)COC(C)(C)C3
31 | 104.9 | Cc1ccc(NC(=O)c2ccc(=O)n(CC(=O)Nc3ccc4c(c3)OCCO4)n2)cc1
32 | 110.5 | Cc1ccc(-c2csc(Cc3nc(-c4ccc(F)cc4)no3)n2)cc1C
33 | 111.7 | S=c1sc2c(s1)SCCCS2
34 | 116.2 | N#CC1(C#N)[C@@H]2c3ccccc3C=CN2[C@@H](C(=O)c2cccs2)[C@@H]1c1ccccc1C(F)(F)F
35 | 103.4 | CC1CCN(S(=O)(=O)c2cc(-c3nnc(C(C)C)o3)co2)CC1
36 | 101.2 | CC(=O)Nc1ccc(N2C(=O)CSC2c2cccc(Br)c2)cc1 (stereo not drawn)
37 | 104.8 | COc1ccc(CN2CCN(C(=O)c3ccc([N+](=O)[O-])cc3)CC2)cc1Br
38 | 103.9 | O=C(Nc1cccc(Cl)c1Cl)c1cc(S(=O)(=O)N(Cc2ccco2)CC2CCCO2)ccc1F (stereo not drawn)
39 | 108.1 | COC(=O)c1ccc(N2C(=O)C3C4c5ccccc5C(C(C)=O)(c5ccccc54)C3C2=O)cc1 (stereo not drawn)
40 | 107.8 | CCc1cccc(-n2nnnc2N2CCN(C(=O)Nc3ccc(C)cc3Cl)CC2)c1
41 | 105.6 | Fc1cccc(-c2noc(CSc3nccn3-c3ccccc3)n2)c1
42 | 106.5 | O=C(Nc1ccc(F)c(Cl)c1)c1cc(S(=O)(=O)N(Cc2ccco2)CC2CCCO2)ccc1F (stereo not drawn)
43 | 107.9 | Cc1ccc(C)c(N2CCN(CC(O)c3ccc4c(c3)OCO4)CC2)c1 (stereo not drawn)
44 | 105.7 | COc1ccc(Cl)cc1Nc1nnc(-c2cc3c(ccc4ccccc43)oc2=O)s1
45 | 104.1 | Cc1nn(-c2ccc3nnc(C)n3n2)c(C)c1CCC(=O)NCCc1c[nH]c2ccccc12
46 | 99.8 | Cc1ccc(C2C3=C(CC(C)(C)CC3=O)Nc3ccccc3N2CC(=O)NCC(C)C)cc1 (stereo not drawn)
47 | 96.6 | CC1(C)SC(=S)N(/N=C/c2ccc(O)cc2)C1N(O)C(=O)NC1CCCCC1 (stereo not drawn)
48 | 108.7 | Oc1ccccc1-c1nc(-c2ccc3sc4ccccc4c3c2)c(-c2ccccc2)[nH]1
49 | 124.9 | COc1cccc(/C=C2\CCCC3=C2OC(N)=C(C#N)C3c2cccc(OC)c2)c1 (stereo not drawn)
50 | 102.9 | Clc1ccc(N2CCN(c3ccc(Cl)cc3)C2c2ccccc2)cc1
51 | 107.3 | CCC(=O)Nc1sc2c(c1C(=O)Nc1ccccc1Cl)CCC2
52 | 103.6 | COc1ccc(C(=O)Nc2ccc(SCc3nnc(-c4ccccc4)o3)cc2)cc1Br
53 | 116.5 | CCOC(=O)c1sc2nc(Cc3ccccc3)nc(NCCCN3CCOCC3)c2c1C
54 | 97.9 | O=C(Nc1ccc(F)c(Cl)c1)N1CCCN(c2nc3cc(F)ccc3n3cccc23)CC1
55 | 105.1 | CC(=O)C1=NN(c2ccccc2C)C2(S1)SC(c1ccc(C)cc1)(c1ccc(C)cc1)c1ccccc12 (stereo not drawn)
56 | 104.7 | CCC(=O)N1CCc2cc(CNS(=O)(=O)c3cccc4nsnc34)ccc21
57 | 97.0 | COc1ccc(C2Nc3c(C)cc(C)cc3[C@H]3OCCC[C@@H]23)cc1Cl (stereo partly drawn)
58 | 99.2 | COc1ccc(S(=O)(=O)N2CSC[C@@H]2C(=O)NCCc2csc(C)n2)cc1
59 | 108.5 | CSCCC1(C(=O)O)NC(c2ccccc2O)C2C(=O)N(c3ccccc3[N+](=O)[O-])C(=O)C21 (stereo not drawn)
60 | 110.9 | COc1ccccc1-n1c(SCC(=O)Nc2nc3ccccc3s2)nc2c(c1=O)SCC2

Continued.
no. | GIV Gai3 FP | SMILES
61 | 101.1 | CCCCCCCNC(=O)c1c[nH]c2ccc(S(=O)(=O)N(C)c3ccc(Br)cc3)cc2c1=O
62 | 107.8 | COc1ccc(/C=C2/C(=O)C(C(C)C)CCC2C)cc1 (stereo not drawn)
63 | 100.7 | O=C(NCCc1cccs1)C1CCc2nc(N3CCCC3)ncc2C1 (stereo not drawn)
64 | 113.2 | COc1cc(/C=C2/N=C(c3ccc(Br)cc3)OC2=O)ccc1OC(C)=O
65 | 109.8 | COCCNC(=O)C1CCCN(c2ncnc3c2oc2ccccc23)C1 (stereo not drawn)
66 | 104.1 | Cc1ccc(N(CC(O)Cn2c3ccccc3c3ccccc32)S(=O)(=O)c2ccc(C)cc2)cc1 (stereo not drawn)
67 | 100.4 | CC(CCc1ccco1)NC(=O)C1CCc2nc(N3CCCC3)ncc2C1 (stereo not drawn)
68 | 113.5 | CCOc1cc(C2C(C#N)=C(N)OC3=C2C(=O)CC(c2ccco2)C3)cc([N+](=O)[O-])c1O (stereo not drawn)
69 | 104.7 | C/C(O)=C1/C(=O)NC2(C)CC1c1cc(Cl)ccc1O2 (stereo not drawn)
70 | 115.4 | Cc1ccc(N2CCN(c3ccc(C)cc3)C2c2ccc(C(C)C)cc2)cc1
71 | 103.9 | O=C(NCCN1CCCC1)c1ccc2ccnc(N3CCN(c4ccc(Cl)cc4)CC3)c2c1
72 | 105.8 | O=C(NCCn1nnc2cc(S(=O)(=O)N3CCCC3)ccc21)NC1CCCC1
73 | 104.7 | CN(C)CCNC(=O)c1nc(-c2ccc(S(=O)(=O)N3CCCC3)cc2)no1
74 | 102.3 | Cc1cc(Nc2ccc(Oc3ccccc3)cc2)nc(-n2nc(C)cc2C)n1
75 | 106.2 | CCCCCOC(=O)CCCCCN1C(=O)C2C3c4ccccc4C(c4ccccc43)C2C1=O (stereo not drawn)
76 | 107.8 | COC(=O)C1=C(C(=O)OC)SC(=C2C(=S)C(C)(C)N(C(C)=O)c3ccc(OC)cc32)S1
77 | 108.4 | CCOC(=O)C1=C(C)N=c2s/c(=C/c3cc(OC)c(O)c([N+](=O)[O-])c3)c(=O)n2C1c1ccc(OC)cc1 (stereo not drawn)
78 | 109.1 | O=C(Nc1cc2c3c(c1)C1CCCC1CN3CC1CCCC21)c1ccc([N+](=O)[O-])cc1 (stereo not drawn)
79 | 105.4 | CC(C)Oc1ccc(CNS(=O)(=O)c2cc(-c3nc(C(C)(C)C)cs3)cs2)cc1
80 | 101.8 | CCOc1ccc(N(C)S(=O)(=O)c2ccc3[nH]cc(C(=O)N4CCc5ccccc5C4)c(=O)c3c2)cc1
81 | 123.4 | CCc1ccc(C2(O)CC(C(F)(F)F)=NN2C(=O)c2ccccc2C)cc1 (stereo not drawn)
82 | 104.3 | N#CC1=C(SCC(=O)Nc2nccs2)NC(=O)CC1c1cccs1 (stereo not drawn)
83 | 106.6 | CCCCN(CCCC)CC(O)CN(c1ccccc1OC)S(=O)(=O)c1ccc(C)cc1 (stereo not drawn)
84 | 106.5 | CSc1nc(N)nc(SCC(=O)Nc2nc(C)cs2)c1C#N
85 | 106.2 | COc1cccc(-c2nc(-c3ccc(-c4ccccc4)cc3)c(-c3ccc(-c4ccccc4)cc3)[nH]2)c1
86 | 104.9 | CCC(C)NC(=O)c1ccc2c(c1)ncn2-c1ccc(C)cc1C (stereo not drawn)
87 | 106.0 | CCCCOc1ccc(C2C3CCCC=C3C(C#N)=C(N)C2(C#N)C#N)cc1 (stereo not drawn)
88 | 99.0 | O=C(NC1CCCCC1)N1CCC(N2CCN(Cc3ccccc3)C(=O)C2=O)CC1
89 | 109.9 | C#CCOc1ccc(/C=C2/C(=O)N(c3ccc(S(N)(=O)=O)cc3)N=C2C)cc1OCC
90 | 116.3 | CCCc1cc(C2CCCN2Cc2cn[nH]c2-c2cccc(OC)c2)no1 (stereo not drawn)
91 | 121.3 | CCOc1ccc(N2C(=O)/C(=C\c3cc(OC)c(OC)cc3OC)S(=O)(=O)C2c2cccc([N+](=O)[O-])c2)cc1 (stereo not drawn)
92 | 104.9 | CCOC(=O)C1=c2s/c(=C/c3ccc(O)cc3)c(=O)n2C(N)=C(C#N)C1c1ccc(O)cc1 (stereo not drawn)
93 | 108.4 | Cc1cc2c(cc1C)N(CC(=O)c1ccccc1)C(C)(C)c1ssc(=S)c1-2
94 | 103.0 | CC(C)(C)c1csc(-c2csc(S(=O)(=O)Nc3ccccc3F)c2)n1
95 | 106.1 | CC(C)(C)NCC(O)Cn1c2ccccc2c2ccccc21 (stereo not drawn)
96 | 104.6 | CCN(CC)c1nc(C)nc2sc(C(=O)N3CCN(c4ccccc4F)CC3)c(C)c12
97 | 98.2 | Cc1noc(/C=C/c2ccc(S(=O)(=O)N3CCN(C)CC3)s2)c1NC(=O)C1CC1
98 | 96.5 | COc1ccc(NC(=O)C2=C(C)NC(=O)NC2c2cc(OC)c(OC)c(OC)c2)cc1 (stereo not drawn)
99 | 104.7 | O=C(Nc1ccc(Br)cc1)N1CCC2(CC1)Nc1ccccc1-n1cccc12
100 | 99.0 | COc1ccc(NC(=O)c2ccc(Cn3nc(C)c(S(=O)(=O)N(C)C)c3C)cc2)cc1

Among those listed so far, these have a thiophene ring, fused or not:
no. | GIV Gai3 FP | SMILES
8 | 95.5 | Cc1cc(Br)ccc1NC(=O)c1cc2c(C)nn(-c3ccccc3)c2s1
26 | 97.7 | Cc1nnc(-c2csc(S(=O)(=O)N3CCOCC3)c2)o1
27 | 103.1 | CCCCC(=O)N1CCCN(C(=O)Nc2ccc(S(=O)(=O)N3CCOCC3)s2)CC1
34 | 116.2 | N#CC1(C#N)[C@@H]2c3ccccc3C=CN2[C@@H](C(=O)c2cccs2)[C@@H]1c1ccccc1C(F)(F)F
48 | 108.7 | Oc1ccccc1-c1nc(-c2ccc3sc4ccccc4c3c2)c(-c2ccccc2)[nH]1
51 | 107.3 | CCC(=O)Nc1sc2c(c1C(=O)Nc1ccccc1Cl)CCC2
53 | 116.5 | CCOC(=O)c1sc2nc(Cc3ccccc3)nc(NCCCN3CCOCC3)c2c1C
63 | 100.7 | O=C(NCCc1cccs1)C1CCc2nc(N3CCCC3)ncc2C1 (stereo not drawn)
79 | 105.4 | CC(C)Oc1ccc(CNS(=O)(=O)c2cc(-c3nc(C(C)(C)C)cs3)cs2)cc1
82 | 104.3 | N#CC1=C(SCC(=O)Nc2nccs2)NC(=O)CC1c1cccs1 (stereo not drawn)
94 | 103.0 | CC(C)(C)c1csc(-c2csc(S(=O)(=O)Nc3ccccc3F)c2)n1
96 | 104.6 | CCN(CC)c1nc(C)nc2sc(C(=O)N3CCN(c4ccccc4F)CC3)c(C)c12
97 | 98.2 | Cc1noc(/C=C/c2ccc(S(=O)(=O)N3CCN(C)CC3)s2)c1NC(=O)C1CC1

Bioassay records (PubChem)
